Kir21 inh: inhibitors of mouse Kir2.1 inward-rectifier potassium channel; HEK293-Kir2.1, FluxOR thallium flux fluorescence; active compounds read low; AID 1672; P35561; B-score at 10 µM; 0.85% of 310,000 active;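 active = fluorescence ratio B-score at or below minus 3 SD of library scores, with starting-brightness B-score within 2 SD, cut at about -4.2 in these data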;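 also: channel flux triggered by added potassium and thallium sulfate stimulus; B-score of peak minus minimum fluorescence over baseline after thallium stimulus; more negative B-score means stronger Kir2.1 block with less thallium influx; some compounds called inactive have numbers as strong as hits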
Target sequence (P35561 whole entry, looked up): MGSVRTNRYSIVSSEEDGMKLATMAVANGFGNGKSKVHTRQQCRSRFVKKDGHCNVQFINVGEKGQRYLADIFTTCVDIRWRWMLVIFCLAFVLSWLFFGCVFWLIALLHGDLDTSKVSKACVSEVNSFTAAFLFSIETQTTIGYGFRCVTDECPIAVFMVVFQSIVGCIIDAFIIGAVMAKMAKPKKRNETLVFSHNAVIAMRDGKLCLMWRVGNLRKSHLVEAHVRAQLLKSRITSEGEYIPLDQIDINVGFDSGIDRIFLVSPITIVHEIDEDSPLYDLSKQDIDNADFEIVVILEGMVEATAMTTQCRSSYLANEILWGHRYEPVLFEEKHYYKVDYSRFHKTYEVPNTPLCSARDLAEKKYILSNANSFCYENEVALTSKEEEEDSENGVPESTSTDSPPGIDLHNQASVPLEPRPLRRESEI
Starred values were filed as active, the others as inactive. Not all compounds are listed, and most or all hits are left out here.

SMILES | Kir21 inh
Cc1cc(-c2n[nH]c(=S)o2)c(C)n1-c1ccccc1 | 0.6
CC1=C(C(N)=O)C(c2ccc(C)o2)C(C(N)=O)=C(C)N1 | 0.55
Cc1n[nH]c(=O)nc1N/N=C/c1ccco1 | 1.93
COc1ccc(/C=N/c2nc3ccccc3n2CCN2CCCCC2)cc1OC | 2.86
C=CCNC(=S)NNC(=O)COc1ccc(Br)cc1 | -3.35
CN1/C(=C/C=C(C#N)C#N)C=Cc2ccccc21 | 0.3
CCCCN(CCCC)S(=O)(=O)c1ccc(NC(=O)CN2CCOCC2)cc1 | -3.58
CC(=O)c1ccc(Nc2nc(N3CCOCC3)nc(N3CCOCC3)n2)cc1 | -0.41
C=C1C(C(=O)Nc2ccc(F)cc2)C1C(=O)Nc1ccc(F)cc1 (stereo not drawn) | 0.07
O=C(CSc1nccc2ccccc12)N1CCN(Cc2ccc3c(c2)OCO3)CC1 | 0.22
Cc1ccc(S(=O)(=O)N2CCCC2)cc1C(=O)N1CCC(C)CC1 | 0.33
Cc1ccc(-c2c(C#N)c(N)n(-c3ccc(C)cc3)c(=O)c2C#N)cc1 | 0.05
Cc1onc(-c2c(F)cccc2Cl)c1C(=O)N1CCN(S(C)(=O)=O)CC1 | -0.35
COC(=O)c1ccc(NC(=S)NCc2ccco2)cc1 | -0.06
CN1CCc2c(sc(/N=C/c3cccs3)c2C(N)=O)C1 | -0.88
COc1ccccc1C(=O)Nc1ccnn1C1CCN(C(=O)C(C)(C)C)CC1 | -0.06
CCOc1ccc(NC(=S)N(CCc2ccncc2)C(C)C)cc1 | 0.83
O=C(Cc1ccc(Cl)c(Cl)c1)NC1CCCCCC1 | 0.45
COC(=O)C(=C/C=C/c1ccco1)C(=O)OC | -0.54
CCOC(=O)Cn1c(Br)nc2c1c(=O)[nH]c(=O)n2C | -2.82
Cc1ccc([N+](=O)[O-])cc1-c1ccc(/C=N/NC(=O)c2cc3c(ccc4ccccc43)o2)o1 | -2.36
O=C(NNC(=S)NCc1ccccc1)c1cccc([N+](=O)[O-])c1 | 1.95
COc1ccc(OC)c(NC(=O)C2CCCNC2=O)c1 (stereo not drawn) | -0.97
COCC(C)n1c(COc2ccccc2F)nnc1SCC(=O)Nc1oc(C)c2c(C)n[nH]c(=O)c12 (stereo not drawn) | 1.87
COc1ccc(NC(=O)C2=C(C)NC(=O)NC2c2ccccc2[N+](=O)[O-])cc1 (stereo not drawn) | -0.07

A few values from the list:
COc1ccc(NC(=O)C2=C(C)NC(=O)NC2c2ccccc2[N+](=O)[O-])cc1 (stereo not drawn) @ Kir21 inh: -0.07
Cc1cc(-c2n[nH]c(=S)o2)c(C)n1-c1ccccc1 @ Kir21 inh: 0.6

The listing continues:
SMILES | Kir21 inh
Cc1nc2ccc(S(=O)(=O)NC(C(=O)N3CCC(C)CC3)C(C)C)cc2s1 (stereo not drawn) | 0.01
O=C(c1ccccc1)C1CCN(C(=O)c2cccs2)CC1 | 0.39
CCOC(=O)Cn1c(=O)oc2cc(S(=O)(=O)NCC3CCCO3)ccc21 (stereo not drawn) | 0.58
Cc1ccc(C(=O)Nc2nc(C)c(C(=O)N(C)C)s2)o1 | 0.44
O=S1(=O)C[C@@H]2N=C(N/N=C/c3ccccc3)S[C@@H]2C1 | -1.68
Cc1ccc2c(c1)nnn2C1CCN(CC(=O)c2ccc(Cl)cc2)CC1 | -1.7
CCC(=O)OC1CC(C)N(C(=O)c2ccccc2)c2ccc(C)cc21 (stereo not drawn) | -0.86
CCSc1nc2sc3c(c2c(=O)n1-c1ccc(OC)cc1)CCN(C)C3 | -0.12
CC(C)COc1nc2ccccc2c(=O)n1OCC(=O)O | -1.03
CCn1cc(C(=O)NCc2cccnc2)c(=O)c2cc(F)c(N3CCN(C(=O)c4ccco4)CC3)cc21 | -1.06
Cc1cccc2nc(CSc3nncn3-c3ccccc3)cn12 | 0.36
Cc1ccc(N2CC(C(=O)NC(C)CCc3ccccc3)CC2=O)cc1 (stereo not drawn) | -0.01
O=C(Nc1ccc(C2CC2(Cl)Cl)cc1)c1cccc([N+](=O)[O-])c1 (stereo not drawn) | 0.21
O=C(CN1C(=O)COc2ccccc21)N(Cc1ccc2c(c1)OCO2)CC1CCCO1 (stereo not drawn) | 2.06
Cn1c(=O)c(-c2cc(=O)[nH][nH]2)c(O)c2ccccc21 | 0.46
S=c1[nH]nc(-c2cc(-c3ccccc3)n[nH]2)n1/N=C/c1c2ccccc2cc2ccccc12 | 0.32
Cc1nc(NC(=O)c2cc3c(C)nn(-c4ccccc4)c3s2)sc1C(=O)Nc1ccccc1 | 2.18
CN(Cc1ccccc1)C(=O)c1cccc(N2C(=O)NC3CC2(C)Oc2ccccc23)c1 (stereo not drawn) | -0.64
Cc1c(Cl)cccc1NC(=O)Cc1cccs1 | 0.56
COc1ccc(-c2cc(C(F)F)n3ncc(C(=O)Nc4cnn(Cc5ccccc5)c4)c3n2)cc1 | 0
CC(=O)Nc1sc(N/N=C/c2ccccc2F)nc1-c1ccc(C)cc1 | -1.58
O=C(CSc1ncccn1)N1CCN(S(=O)(=O)c2ccccc2)CC1 | -0.07
O=C(COC(=O)c1ccc(Br)cc1)NCCC1=CCCCC1 | 0.51
CN1CCN(CCCNCc2cn(CCC#N)c3ccccc23)CC1 | 0.41
Cc1cnc(NC(=O)CN(C)S(=O)(=O)c2ccc(Cl)cc2)s1 | -0.29

Next part; it opens with the 6 that closed the last part.
SMILES | Kir21 inh
COc1ccc(-c2cc(C(F)F)n3ncc(C(=O)Nc4cnn(Cc5ccccc5)c4)c3n2)cc1 | 0
CC(=O)Nc1sc(N/N=C/c2ccccc2F)nc1-c1ccc(C)cc1 | -1.58
O=C(CSc1ncccn1)N1CCN(S(=O)(=O)c2ccccc2)CC1 | -0.07
O=C(COC(=O)c1ccc(Br)cc1)NCCC1=CCCCC1 | 0.51
CN1CCN(CCCNCc2cn(CCC#N)c3ccccc23)CC1 | 0.41
Cc1cnc(NC(=O)CN(C)S(=O)(=O)c2ccc(Cl)cc2)s1 | -0.29
CCOc1ccc(/C=N/N2CCN(Cc3ccccc3)CC2)cc1 | 1.03
O=C(c1cccs1)N1CCN=C1SCc1cccnc1 | 0.54
CCCCN(C)CCNC(=O)c1cc2c(-c3cccc(OC)c3)nn(C)c2s1 | 0.06
CN(c1ccccc1C(=O)Nc1ccc(S(=O)(=O)N2CCCC2)cc1)S(C)(=O)=O | -0.21
Cc1ccc(NS(=O)(=O)c2ccc3c(c2)n(C)c(=O)n3C)c(C)c1 | -0.03
CCOc1ccc(Oc2ccccc2NC(=O)CN2C(=O)NC3(CCCC3)C2=O)cc1 | -0.31
COc1ccc(OCC(=O)NNc2nc3ccccc3s2)cc1 | 1.59
CCOC(=O)N1CCC(C(N)=O)CC1 | 3.09
Cc1cc2c(cc1S(=O)(=O)Nc1ccc(F)cc1)n(C)c(=O)c(=O)n2C | -0.71
COCCn1c(SCC(=O)NCc2ccccc2)nnc1-c1ccco1 | -0.69
Cc1csc(NC(=O)C(CC(C)C)NS(=O)(=O)c2ccc3c(c2)oc(=O)n3C)n1 (stereo not drawn) | -0.35
Cc1ccc(C)c(N2CN(Cc3ccco3)CNC2=S)c1 | -0.08
CCOCC(=O)Nc1ccccc1C(=O)N1CCOCC1 | 0.97
Cc1c(NC(=O)c2ccc(Br)s2)c(=O)n(-c2ccccc2)n1C | -0.98
C[C@@H]1C=C(C(=O)N2CCOCC2)O[C@H](OCc2ccc(CO)cc2)C1 | 0.28
O=C(CN1CCN(c2ccccn2)CC1)Nc1ccccc1C(=O)Nc1ccccc1 | 2.48
COc1cc(-c2cccs2)cc(=O)c2c(C)oc(C)c12 | -0.27
NS(=O)(=O)c1ccccc1 | -0.83
O=c1[nH]c(CN2CCN(c3ccccc3)CC2)nc2ccccc12 | 0.12
Cc1ccccc1C(=O)NC1CCN(CC(=O)Nc2ccc3c(c2)OCCO3)CC1 | 1.07
Cc1ccc(NC(=O)c2ccc3c(c2)N(CC(=O)NC(C)C)C(=O)C(C)(C)O3)cc1 | 0
Cc1ccc(N2C(=O)c3ccc(C(=O)NCCN4CCOCC4)cc3C2=O)cc1 | -0.59
CC(C)[C@@H](CO)NC(=O)c1ccc2c3n(nc2c1)-c1ccccc1CO3 | 1.83
O=C(Nc1ccc(F)cc1)c1cccc(N2C(=O)C3C4C=CC(C4)C3C2=O)c1 (stereo not drawn) | -0.55
Cc1cc(C)nc(NS(=O)(=O)c2ccc(NC(=O)CN3C(=O)S/C(=C\c4ccccc4)C3=O)cc2)n1 | -0.12

Pulled one by one from the list above, 4 records:
SMILES | Kir21 inh
O=C(CSc1nccc2ccccc12)N1CCN(Cc2ccc3c(c2)OCO3)CC1 | 0.22
COc1ccc(/C=N/c2nc3ccccc3n2CCN2CCCCC2)cc1OC | 2.86
Cc1cnc(NC(=O)CN(C)S(=O)(=O)c2ccc(Cl)cc2)s1 | -0.29
CN1/C(=C/C=C(C#N)C#N)C=Cc2ccccc21 | 0.3

Going on with the list.
SMILES | Kir21 inh
COc1ccc(/C=C/C(=O)Nc2ccc3nc4n(c(=O)c3c2)CCCC4)cc1OC | -1.27
COc1cccc(N2CCN(CC(=O)NC(C)c3ccccc3)CC2)c1 (stereo not drawn) | 0.99
CCCCn1c(N)c(N(CCOC)C(=O)c2cc(-c3ccc(OC)c(OC)c3)nc3ccccc23)c(=O)[nH]c1=O | 1.08
CCc1cc(=O)oc2c3c(cc(OCC(=O)NCc4cccnc4)c12)OC(C)(C)CC3 | -0.79
CCN(C(=O)COC(=O)c1ccc(F)c(S(=O)(=O)N2CCOCC2)c1)C1CCS(=O)(=O)C1 (stereo not drawn) | 0.25
Cc1cc(NC(=O)[C@H](C)NC(=O)c2ccco2)ccc1Br | 0.26
C=CCOC(=O)C1C(=O)CC(C)(O)C(C(=O)OCC=C)C1c1ccc(N(C)C)cc1 (stereo not drawn) | -2.36
O=C(CSc1ncn[nH]1)NCc1ccc(Cl)cc1 | 1.44
CCc1c(C)sc(NC(=O)c2ccc(Br)o2)c1C(=O)OC | 1.72
O=C(COn1nnc2ccc(S(=O)(=O)N3CCOCC3)cc21)NCCc1ccccc1 | -2.67
Nc1nnc(Cc2ccc(Cl)c(Cl)c2)s1 | 0.19
COC(=O)CCC(=O)Nc1cc(Cl)cc(Cl)c1 | 0.23
Cc1cc(F)ccc1S(=O)(=O)N1CCCOC1CNC(=O)C(=O)NCc1ccc2c(c1)OCO2 (stereo not drawn) | -0.02
CCOc1cccc2c1OC1(C)CC2NC(=O)N1c1cccc(F)c1 (stereo not drawn) | 1.84
COc1ccc(NS(=O)(=O)c2ccc(OC)c(NC(=O)CCC3CCCC3)c2)cc1 | -0.09
CCn1c(C)c(C)c2cc(C(=O)NCCN3CCOCC3)ccc21 | -1.36
CN(Cc1cnn(C)c1)Cc1nc(C(c2ccccc2)c2ccccc2)no1 | 0.68
O=C(CCNC(=O)N1CCn2c1nc1ccccc12)NCc1ccc(F)cc1 | -0.59
O=[N+]([O-])c1cc(C(F)(F)F)cc([N+](=O)[O-])c1Sc1n[nH]c(C(F)(F)F)n1 | 2.09
O=C(Cn1[nH]c(=O)c2ccccc2c1=O)N1CC=C(c2ccccc2)CC1 | 0.34
CCOC(=O)c1ccc2[nH]c3c(c2c1)CCCC3O (stereo not drawn) | 0.24
O=C(CCCc1ccccc1)N=C1SC2CS(=O)(=O)CC2N1c1ccccc1F (stereo not drawn) | 0.11
Cc1nc(SCC(=O)NCCc2ccccc2)n[nH]1 | 1.6
CCc1ccccc1NC(=O)C1C(c2ccccc2)C1(Cl)Cl (stereo not drawn) | -1.95
CC(C)=CCC/C(C)=C/CC/C(C)=N/O | 0.66

A draw from above in order of number of heavy atoms, rising.
SMILES | Kir21 inh
O=S1(=O)C[C@@H]2N=C(N/N=C/c3ccccc3)S[C@@H]2C1 | -1.68
CC(C)COc1nc2ccccc2c(=O)n1OCC(=O)O | -1.03
CCCCN(C)CCNC(=O)c1cc2c(-c3cccc(OC)c3)nn(C)c2s1 | 0.06

Following part.
SMILES | Kir21 inh
CCN(C(=O)COC(=O)c1ccc(Cl)nc1)C1CCS(=O)(=O)C1 (stereo not drawn) | -0.17
CN(C)C(CNc1ccc(C(N)=O)cc1[N+](=O)[O-])c1ccccc1 (stereo not drawn) | -0.37
O=C(NCc1ccncc1)C(=O)NCC1OCCCN1S(=O)(=O)c1cc(F)ccc1F (stereo not drawn) | -1.55
N#Cc1nc(COc2ccccc2)oc1N1CCC(Cc2ccccc2)CC1 | 0.05
Brc1ccccc1CN1CCC(Cc2ccccc2)CC1 | 0.58
COc1ccc2c(c1OC)C(=O)N1C(C(=O)O)Cc3c([nH]c4ccccc34)C21 (stereo not drawn) | -0.57
COc1ccc(-c2noc(N3CCC(C(=O)Nc4ccc(F)cc4F)CC3)n2)cc1 | 0.2
Cc1ccc(C)c(NS(=O)(=O)c2ccc(OCC(=O)NCc3ccco3)cc2)c1 | 0.05
CC(=O)c1sc(NC(=O)c2cc3c(C)nn(-c4ccccc4)c3s2)nc1C | 0.87
Cc1ccc(/C(N)=N/OC(=O)N2CCOCC2)cc1 | -0.5
COc1ccccc1CN1CC(C(=O)NC2CCCCC2)CC1=O (stereo not drawn) | -0.63
Cn1c(SCC(=O)Nc2nccs2)nnc1-c1ccco1 | -0.76
O=C(CCCCCNC(=O)c1ccccc1)N/N=C/c1ccc(F)cc1 | -1.53
CCOc1ccc(S(=O)(=O)NN=C2CCN(C(C)=O)CC2)cc1 | 0.95
FC(F)(F)c1cccc(N2CCN(CC3CC=CCC3)CC2)c1 (stereo not drawn) | 0
O=C(COC(=O)c1ccc2c(c1)OCO2)NC1CCS(=O)(=O)C1 (stereo not drawn) | 0.79
CCOC(=O)N1CCN(C(=O)CCc2c(C)nc3nc(C)nn3c2C)CC1 | -0.2
CC(C)C[C@H](NC(=O)c1[nH]cnc1C(=O)N[C@H](C)c1ccccc1)C(=O)OC(C)(C)C | 0.54
CC(C)N(Cc1nc(-c2ccccc2)no1)C(=O)c1ccc2c(c1)OCO2 | -2.33
Cc1ccc(C2=Nc3ccccc3NC(C)(c3ccc(C)o3)C2)o1 (stereo not drawn) | -1.34
O=C(Nc1nnc(CCS(=O)(=O)c2ccc3ccccc3c2)s1)c1cccs1 | -2.39

Assay outcomes deposited in PubChem BioAssay by Johns Hopkins Ion Channel Center.
